Calb FLC: affects C. albicans growth with fluconazole; C. albicans CaCi-2 (fluconazole-resistant clinical isolate) + fluconazole, Alamar Blue growth, 48 h; growth inhibition, % (no concentration beside the values); 300,000 tested, 0.57% active; AID 1979;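 active = most replicates above 75%; inconclusive = exactly half above 75%; inactive = most below 75%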;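 note: all wells also contain fluconazole at 8 µg/ml as a sub-toxic cotreatment; 0% = median of DMSO wells and 100% = median of geldanamycin control wells; wells of about 8 µL received 7.5 nL stock; the first replicate is given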
LANA-H2B inh: blocks KSHV LANA binding to histone H2A/H2B. Q9QR71. 320,000 tested, 0.6% active. cell-free LANA-H2A/H2B peptide, fluorescence polarization. inhibition, % (concentration not given with the values); in the data active = inhibition mostly above about 10%, no sharp cut-off; inactive = mostly below about 6.7%;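 note: stock transfer was 7.5 nL into about 10 µL; 0% = median of vehicle wells and 100% = median of positive control wells; one replicate is shown; the record names a cut of 25% in any replicate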
B2AR ag: human beta-2 adrenergic receptor agonism by FAP; P07550; Am2.2-beta2AR cells, FAP receptor internalization, flow cytometry; reference of the scale not given here; response, % (concentration not given with the values); 340,000 tested, 0.43% active; AID 504454;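 active = response above a set limit, near 3 SD of response in nonfluorescent compounds, cut at about 42% in these data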;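 note: stock transfer was 100 nL into about 11 µL; a reference agonist was the positive control; negative values mostly stem from fluorescent compounds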
Target sequence (P07550 whole entry, looked up): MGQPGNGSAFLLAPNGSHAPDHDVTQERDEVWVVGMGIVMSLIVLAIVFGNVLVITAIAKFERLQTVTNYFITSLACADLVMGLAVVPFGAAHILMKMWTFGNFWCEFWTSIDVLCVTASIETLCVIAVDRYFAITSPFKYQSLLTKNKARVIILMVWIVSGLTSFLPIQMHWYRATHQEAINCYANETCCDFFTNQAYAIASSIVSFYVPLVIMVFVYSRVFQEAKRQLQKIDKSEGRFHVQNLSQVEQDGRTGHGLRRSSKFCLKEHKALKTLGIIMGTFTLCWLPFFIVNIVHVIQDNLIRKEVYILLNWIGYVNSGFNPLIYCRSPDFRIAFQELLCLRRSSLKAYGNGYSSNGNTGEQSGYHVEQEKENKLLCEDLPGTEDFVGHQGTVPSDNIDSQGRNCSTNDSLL
HNF4A DNA FP: change in binding of human HNF4 alpha to DNA; activity change, % at 10 µM; HNF4a-FITC DNA binding, fluorescence polarization, 1 h; 360,000 tested, 0.3% active; in the data active = activity change above about 30%, passing the limit was not always enough;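 note: controls were the assay level and a saturating level of protein; the project sought stronger binding though the title names inhibitors; some compounds called inactive have numbers as strong as hits; positive values seem to mean higher polarization but the record does not say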
Target sequence (P41235 whole entry, looked up): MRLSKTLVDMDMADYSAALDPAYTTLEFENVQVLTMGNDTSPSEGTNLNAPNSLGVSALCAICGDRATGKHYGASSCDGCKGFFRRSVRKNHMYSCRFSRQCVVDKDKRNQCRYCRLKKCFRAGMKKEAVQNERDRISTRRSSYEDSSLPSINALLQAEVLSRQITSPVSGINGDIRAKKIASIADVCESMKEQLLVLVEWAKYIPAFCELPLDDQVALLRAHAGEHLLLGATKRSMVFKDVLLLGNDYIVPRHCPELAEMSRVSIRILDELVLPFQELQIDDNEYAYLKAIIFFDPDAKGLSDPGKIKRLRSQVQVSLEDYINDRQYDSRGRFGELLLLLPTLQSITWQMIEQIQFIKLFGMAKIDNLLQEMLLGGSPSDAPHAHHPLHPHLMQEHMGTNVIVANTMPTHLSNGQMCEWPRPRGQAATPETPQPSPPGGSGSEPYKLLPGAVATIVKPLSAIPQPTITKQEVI
RanGTP-Impb inh: inhibitors of RanGTP-importin-beta interaction, primary screen, biochemical, FRET, CFP-Ran, YFP-importin-beta, homogeneous; inhibition, % (concentration not given with the values); 300,000 tested, 1.1% active; AID 2216; cell-free CFP-Ran/YFP-importin-beta FRET ratio;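 active = most replicates above 15%; inconclusive = exactly half above 15%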;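 note: 0% = DMSO wells and 100% = Ran loaded with GDP instead of GTP; wells of about 40 µL received 100 nL stock; the first replicate is given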
Vif A3G: HIV-1 Vif–A3G interaction blockers – biochemical, TR-FRET, GST-Vif 1-94, biotin-A3G peptide, dose response retest, primary screen (AID 1117319); TR-FRET GST-Vif / biotin-A3G peptide binding; higher % means a stronger effect; test concentration not given here; strong numbers were not always called active; inhibition, %; hits with a dose series show IC50 in µM; 260,000 tested, 0.57% active;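 active = above the screen mean plus three standard deviations and confirmed in dose response; inconclusive = results disagree or hit not tested in dose response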;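 note: Vif residues 1-94 fused to GST binding biotinylated APOBEC3G peptide 110-148; 0% = full assay without inhibitor and 100% = GST in place of GST-Vif; retest series ran down from 100 µM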
ALR H2O2 inh: human ALR oxidase inhibition via reduced H2O2; 290,000 tested, 3.8% active; inhibition, % (no concentration beside the values); P55789; AID 485317; purified ALR, DTT oxidation, H2O2 HRP-luminol luminescence;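 active = mean and each replicate at 75% or more; inconclusive = only one of the two met; inactive = neither met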;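 note: stock transfer was 7.5 nL into about 7.5 µL; 0% = neutral wells and 100% = wells with inactivated enzyme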
Target sequence (P55789 whole entry, looked up): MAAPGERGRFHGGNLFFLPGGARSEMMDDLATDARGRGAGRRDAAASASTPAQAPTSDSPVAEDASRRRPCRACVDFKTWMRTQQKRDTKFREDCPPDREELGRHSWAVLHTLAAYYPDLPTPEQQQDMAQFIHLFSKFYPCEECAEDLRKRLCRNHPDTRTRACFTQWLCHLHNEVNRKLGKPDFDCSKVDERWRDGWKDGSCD
* hit, by the source's call; i = inactive; ? = inconclusive; · = no result given; + = active, no number; & = joins results of further samples.

SMILES	Calb FLC	LANA-H2B inh	B2AR ag	HNF4A DNA FP	RanGTP-Impb inh	Vif A3G	ALR H2O2 inh
COc1ccc(C)cc1S(=O)(=O)Nc1cc2c3c(c1)C(C)C(=O)N3CCC2 (configuration not stated)	4	6.5	4	-2.4	-7.3	-11%	-5
CN(C)C(CNC(=S)Nc1cccc(Cl)c1)c1cccnc1 (configuration not stated)	-3	1.2	-5	0.5	-0.6	0%	0
CC(C)C(C(=O)NCC1CCCO1)N(Cc1ccco1)C(=O)CNS(=O)(=O)c1ccc(F)cc1 (configuration not stated)	28	3.5	-2	-0.3	-13	16%&-3%	·
O=C(Cc1ccccc1)Nc1cccc(-c2nnc(-c3ccco3)o2)c1	52	-0.2	-10	1.8	-1.8	-5%	3
COc1ccc(NC(=O)c2cnc(SC)n2-c2ccc(F)cc2)c(OC)c1	10	-1.6	-1	0.5	7.0	-1%	-4
Cc1cccc2cc(C#N)c(NCCCNS(=O)(=O)c3ccc(Cl)cc3)nc12	5	2.2	3	2.6	47*	14%	-4
O=C(c1ccc2c(c1)OCO2)N1CCN=C1SCc1cccnc1	2	-4.7	8	-5.2	1.8	?	98*
CCOC(=O)c1ccccc1NC(=O)Cn1cnc2c1c(=O)n(C)c(=O)n2C	0	8.3	-2	5.0	-1.6	1%	-4
CCCNC(=O)COC(=O)c1ccc(N2CCCC2)c([N+](=O)[O-])c1	-12	-3.3	-29	1.0	3.1	?	16
COc1ccc(C(=O)N/N=C/c2sc3ccccc3c2O)cc1	27	+	3	126	7.9	11%	81*
Cc1ccc(NC(=O)NC(=O)CSc2n[nH]c(N)n2)c(C)c1	-13	2.8	-4	0.2	0.2	13%	-1
CC(=O)NCC(=O)N(C)C(C(=O)Nc1ccc(C(C)C)cc1)c1ccccc1 (configuration not stated)	-3	-6.2	6	1.4	-0.6	1%	·
CCc1cccc2c(C(=O)CCl)c[nH]c12	·	-2.9	2	2.1	·	6%	52
COc1ccc(CCNC(=O)CCc2nc3ccccc3[nH]2)cc1OC	-6	-8.5	-9	-2.9	0.7	13%	·
O=C(COC(=O)c1ccccn1)NCCCc1ccccc1	-2	-8.1	1	-0.3	-0.7	7%	3
CC(NC(=O)c1ccc(-c2ccccc2)cc1)C(c1ccccc1)N1CCOCC1 (configuration not stated)	·	-3.0	0	-1.9	·	-4%	·
CCSc1nnc(NC(=O)c2csc3c2CCC(C)C3)s1 (configuration not stated)	14	-2.0	-2	4.0	-1.7	3%	-16
Oc1ccc(/C=N/Nc2nc(N3CCCCCC3)nc(N3CCCCCC3)n2)c(O)c1	-16	-5.6	10	-2.4	0.1	2%	0
O=C(c1ccc2ccccc2c1)N1CCN(Cc2ccccc2)CC1	8	1.6	-1	5.5	2.7	-3%	-54
Cc1cc(C)n(C(=O)COc2ccc([N+](=O)[O-])cc2)n1	-1	1.0	-1	3.8	0.7	5%	-3
Cc1cc(C=O)c(C)n1-c1ccc(Cl)c(C(=O)O)c1	7	4.5	-2	-35	-7.0	·	2
COc1ccc(C(=O)C2CCCN(C(=O)c3cccc(N4CCCC4=O)c3)C2)cc1OC (configuration not stated)	-6	·	-4	2.8	3.3	·	·
Cc1ccnc(NS(=O)(=O)c2ccc3c(c2)CCO3)c1	-10	6.1	·	·	4.1	-10%	-8
COc1ccc(-c2csc3nc(-c4cccnc4)nc(Cl)c23)cc1OC	12	2.4	0	8.3	2.7	·	98*
Cc1ccc(-c2nnc(NC(=O)CCS(=O)(=O)c3ccc(F)cc3)o2)c(C)c1	-1	-1.6	-2	1.4	7.9	-10%	-2
C/C=C(\C)C(=O)NCCN1C2=NC[C@H](Cc3ccc(O)cc3)N2C[C@@H]1Cc1ccc(OC)cc1	1	-4.6	0	-1.7	0.4	·	7
COc1ccc2ccc(=O)oc2c1CC=C(C)C	3	1.4	-29	-0.1	?	0%	-4
O=c1cc(O)nc(SC23CC4CC(CC(C4)C2)C3)[nH]1	12	0.2	2	-1.1	-3.1	3%	-4
COc1ccccc1OCCNC(=O)c1ccccc1OCc1c(C)noc1C	·	-27	-2	1.3	·	-9%	-9
CCOc1ccc(C2c3cc(OC)c(OC)cc3CC(=O)N2c2ccc(OC)cc2)cc1 (configuration not stated)	-15	3.8	-6	-2.9	2.3	0%	-8
O=c1cc(-c2ccccc2)[nH][nH]1	-3	-2.1	3	-1.2	-1.2	?	59
CCCCN(C)S(=O)(=O)c1ccc(C(=O)N(CCN(C)C)c2nc3ccc(C)cc3s2)cc1	-12	6.4	0	2.0	1.1	-5%	-7
N/C(=N\NC(=O)c1sccc1OCc1ccc(Cl)cc1Cl)c1ccccn1	?	-7.4	3	-4.0	2.6	-1%	-1
CC(=O)Nc1cccc(NC(=O)COc2nncc3ccccc23)c1	-2	-3.9	-8	1.1	3.2	·	-3
CC(C)c1ccc(C(CC(=O)O)N2Cc3ccccc3C2=O)cc1 (configuration not stated)	-1	5.9	1	1.9	6.9	-5%	-11
Cc1ccc(N(Cc2cc3ccc(C)cc3[nH]c2=O)C(=O)c2ccco2)cc1	2	-0.6	-2	1.2	3.8	8%	8
CCCN(CC(=O)Nc1ccccc1Br)CC(=O)Nc1ccc(F)c(F)c1F	-2	-0.5	-5	0.5	0.3	·	·
CCOC(=O)C1=C(CNCc2ccccc2Cl)NC(=O)NC1c1ccc2c(c1)OCO2 (configuration not stated)	2	2.6	-5	0.4	-2.3	4%	-1
CCOC(=O)CSC1=C(C#N)C(=O)NC(c2ccc(OC)cc2)S1 (configuration not stated)	-16	-2.9	4	-1.5	1.9	13%	98*
CCOc1ccc(CC(=O)NNC(=S)NC2CCCCC2)cc1OCC	-5	0.7	4	2.8	-2.3	-8%	17
COc1ccc(CCn2nnc(-c3ccc(NC(C)=O)c(Cl)c3)n2)cc1	3	1.6	-4	-0.7	0.0	-5%	·
CCOC(=O)c1c(NC(=O)c2cc(C(C)C)on2)sc(C(C)=O)c1C	-8	-9.0	-7	3.5	0.8	28%	5
C/C(=N\NC(=O)c1cccc(S(=O)(=O)N2CCOCC2)c1)c1ccc(O)cc1	·	7.9	-7	3.2	·	-8%	·
Cc1ccc(CN(C)C(=O)c2cc(COc3cccc(C(F)(F)F)c3)on2)o1	-3	-3.4	0	1.2	2.2	·	44
CC(=O)Nc1ccc(S(=O)(=O)NCC(C)NS(=O)(=O)c2ccc(NC(C)=O)cc2)cc1 (configuration not stated)	15	3.0	-5	2.4	-4.1	-2%	-7
COc1cccc(C(=O)N(C)Cc2c(C)nn(C3CCS(=O)(=O)C3)c2C)c1 (configuration not stated)	·	-4.2	2	-1.4	·	·	-9
COc1cc(OC)cc(-c2c(-c3cccs3)c3cc(-c4cnc(N)nc4)ccc3n2C)c1	·	7.3	-3	-0.3	·	·	2
O=C(CN1CCNCC1)Nc1ccccc1Cl	-8	2.1	-8	-5.0	1.1	0%	0
CCc1noc(C)c1C(=O)N(CC)CC(=O)Nc1cc(Cl)ccc1C	·	·	9	10	·	9%	-3
COc1ccc(Cl)cc1NS(=O)(=O)c1cc(Cl)ccc1OC	-13	2.9	6	-3.1	-1.3	?	-4
O=C(NCc1ccccc1)c1cc(-n2cnnc2)ccc1Cl	·	-2.0	2	3.2	·	?	·
CN(C)S(=O)(=O)N(CC(=O)N1CCOCC1)c1ccccc1	3	-1.0	3	4.6	0.9	2%	-7
O=C(NCCCn1ccnc1)c1cccc(S(=O)(=O)Nc2ccccc2F)c1	-4	4.1	-1	-1.1	-0.2	18%	-8
Cc1cccc(C)c1N=C1NN=C(c2ccccc2F)CS1	3	-3.1	10	2.9	6.8	·	-3
CC1CCN(C(=O)c2scc3c2OCCO3)CC1	-2	-0.1	-2	0.8	0.2	30%	2
Cc1ccc(NNc2c(C)nc3ccccc3nc2=O)cc1	-7	1.1	6	-0.5	-3.9	-6%	-8
Cc1ccc(S(=O)(=O)N2CCCC2C(=O)OCc2ccccc2)cc1 (configuration not stated)	-2	-4.4	29	0.0	-2.9	·	9
CCN(C(=O)COC(=O)COc1ccc2c(C)cc(=O)oc2c1)C1CCS(=O)(=O)C1 (configuration not stated)	21	0.0	-3	-2.3	-0.2	0%	-4
CC(=O)c1c(C)[nH]c(C(=O)Nc2cccc(C)c2C)c1C	-1	5.9	3	-3.6	5.8	·	-1
O=C1S/C(=C/c2ccccc2F)C(=O)N1CCN=C1NS(=O)(=O)c2ccccc21	-1	1.5	-13	3.6	1.3	·	-5

Pulled by structure from above, 2 records:
SMILES	Calb FLC	LANA-H2B inh	B2AR ag	HNF4A DNA FP	RanGTP-Impb inh	Vif A3G	ALR H2O2 inh
C/C=C(\C)C(=O)NCCN1C2=NC[C@H](Cc3ccc(O)cc3)N2C[C@@H]1Cc1ccc(OC)cc1	1	-4.6	0	-1.7	0.4	·	7
O=C(CN1CCNCC1)Nc1ccccc1Cl	-8	2.1	-8	-5.0	1.1	0%	0

Next records
SMILES	Calb FLC	LANA-H2B inh	B2AR ag	HNF4A DNA FP	RanGTP-Impb inh	Vif A3G	ALR H2O2 inh
CCCOC(=O)c1c(N)sc(C(=O)OCC)c1C	14	-2.3	-6	1.2	1.1	2%	-1
CC(C)(C)c1ccc(OCc2ccc(C(=O)N3CCOCC3)o2)cc1	9	-1.6	9	-1.6	-1.0	·	3
Cc1ccc(SCc2c(C(=O)N/N=C/c3ccncc3)nnn2-c2nonc2N)cc1	·	-3.5	-2	0.0	3.2	-7%	1
CN(C)C(=S)Nc1ccc(N2CCOCC2)cc1	?	4.5	-8	4.7	2.0	-3%	99*
O=C(O)c1cc(=S)nc[nH]1	·	·	1	3.9	·	-6%	·
C[C@@H]1COC(=O)[C@H](NC(=O)OCC2c3ccccc3-c3ccccc32)C/C=C\C[C@@H](CC(=O)N[C@@H](CO)Cc2ccccc2)C(=O)N1	·	-3.2	-3	-0.5	·	·	0
CC(=O)Oc1c(Cl)cc(Cl)cc1/C=C/c1ccc2ccccc2n1	23	3.5	-1	1.3	-1.9	1%	8
Cc1ccnc(NC(=O)c2cnc(Cl)c(Cl)c2)c1	-2	-4.5	-6	1.9	1.8	·	·
CCN1/C(=C\c2ccc3cc(C)ccc3[n+]2CC)Sc2cc(C)c(C)cc21	104*	·	i	107*	-3.6	-48%	·
CC/C=C/C(=O)N1CC2(CC(c3cccc(NC(=O)CC(c4ccccc4)c4ccccc4)c3)=NO2)C[C@@H]1C(N)=O (some centres not stated)	15	-9.4	2	6.1	2.8	2%	·
CN(C)c1ccc(C(=O)N/N=C/c2cc(Br)cc(Br)c2O)cc1	73	5.1	13	0.7	13	-6%	-11
Cc1cccc(CSc2nc3sc(C)c(C)c3c(=O)n2Cc2ccco2)c1	-24	-2.0	-2	-0.7	2.4	11%	4
CC(=O)c1cccc(NC(=O)C=C(C)C)c1	12	2.6	-3	1.9	6.8	-1%	-1
COc1cc(C2CC(=O)c3cnc(NC(=O)COc4ccccc4)nc3C2)cc(OC)c1OC (configuration not stated)	?	0.9	1	0.9	3.3	-3%	-15
Cn1ncc([N+](=O)[O-])c1C(=O)Nc1ccn(Cc2ccccc2F)n1	-1	-2.4	5	-2.0	5.6	3%	-11
CCn1c(SCC(=O)NCCc2ccccc2)nc2sc3c(c2c1=O)CCN(C)C3	6	-4.7	-11	-1.4	5.7	14%	·
CCOC(=O)C(Cc1ccccc1)(NC(C)=O)C(=O)OCC	-8	1.5	10	0.4	-1.7	-3%	-7
CC(=O)c1ccc(OCC(O)Cn2nnc3ccccc32)cc1 (configuration not stated)	-1	-0.8	5	2.7	-0.1	3%	-6
Cc1ccc(C)c(S(=O)(=O)N/N=C/c2ccc(N3CCOCC3)cc2)c1	2	1.6	5	2.9	-0.1	·	33
COc1ccc([N+](=O)[O-])cc1N(CC(=O)NCCC1=CCCCC1)S(C)(=O)=O	34	-7.4	3	-2.6	-3.1	·	-4

Source: PubChem BioAssay (several laboratories)

This is a random part of the collection; about 6.3% have a hit in one of these screens.
